From PubChem BioAssay
A1 inh = inhibitors of the anti-apoptotic protein A1, read as caspase activation; caspase activation, % (test concentration not listed); 330,000 compounds, 0.066% hits; AID 2462; MEF A1-2A-BIM cells, Caspase-Glo 3/7 luminescence, 3 h; percent of clofoctol response, vehicle zero;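 active = over half of replicate activation scores above 10%, or exactly half above 10 with the replicate mean above 10; inconclusive = replicate mean below 10 yet half the replicates above 10; inactive = over half of replicates below 10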;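 also: wells of about 30 µL received 50 nL stock; many hits fall short of the cut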
Beta cell apopt = beta cell apoptosis inhibition | INS-1E cytokine-induced death, ATP luminescence, 48 h; percent of positive-control rescue, neutral wells zero | protection from apoptosis, % (concentration not given with the values) | 300,000 compounds, 0.8% hits;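 active = all replicates at 75% or more, or half of them and the mean; inconclusive = half reach 75% but not the mean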;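 also: 0% = cytokine-treated negative control wells and 100% = positive control rescue; higher means more ATP so stronger rescue from cytokine killing; wells of about 40 µL received 100 nL stock; the first replicate is given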
Ecoli rRNA inh = selective bacterial rRNA inhibition in E. coli; GFP signal change (wild-type ribosome), % (no concentration beside the values); E. coli WT GFP vs humanized-ribosome RFP mutants, fluorescence, 24 h; active compounds read low; DMSO median 0, no signal -100; AID 720706; 350,000 compounds, 1.6% hits;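 active = significant combined selectivity score with lowered wild-type GFP, culture density cut under 30%, mutant RFP and density less affected; inactive = any of these conditions unmet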; also: one replicate is shown; some compounds called inactive have numbers as strong as hits
FGF22 binding = binders of recombinant human FGF22 by thermal shift. calls only at 9.99 µM. SYPRO orange fluorescence; percent of sucrose octasulfate shift, DMSO zero. Q9HCT0. 340,000 compounds, 1.5% hits;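 active = melting point raised past a set limit in the mean and every replicate; inconclusive = no clear call; three in four hits are not shown here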
Target sequence (Q9HCT0 whole entry, looked up): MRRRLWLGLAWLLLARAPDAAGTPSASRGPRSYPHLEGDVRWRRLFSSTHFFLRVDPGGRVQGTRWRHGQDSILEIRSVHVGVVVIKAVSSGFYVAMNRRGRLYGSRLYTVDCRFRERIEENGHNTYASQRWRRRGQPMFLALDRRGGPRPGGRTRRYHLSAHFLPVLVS
T cruzi inh = blocks replication of Trypanosoma cruzi; inhibition, % (concentration not given with the values); 300,000 compounds, 1.4% hits; T. cruzi beta-gal in NIH3T3, luminescence, 90 h;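 active = mean inhibition across valid replicates above about 55%, limit read from the data; inconclusive = mean below that limit but half or more replicates reach it; inactive = mean below it, under half of replicates reach it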;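 also: signal also drops with host cell toxicity which is not excluded here; 0% = plate median of DMSO wells and 100% = zero luminescence signal; higher percent means less beta-gal luminescence so fewer parasites; stock transfer was 50 nL into about 50 µL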
E coli growth = blocks Escherichia coli growth; OD600, 23 h; active compounds read low; OD600 absorbance (concentration not given with the values); 330,000 compounds, 0.21% hits; AID 1053175;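 active = OD600 absorbance below the run mean of sample wells minus 3.6 SD, in any replicate, cut at about 0.56 in these data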;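 also: stock transfer was 300 nL into about 60 µL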
UCH37 inh = blocks the human deubiquitinase UCH37 | AID 588478 | 330,000 compounds, 0.33% hits | Q9Y5K5 | inhibition, % (no concentration beside the values) | purified proteasome/UCH37, Ub-AMC cleavage fluorescence;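 active = mean of two replicates above 20%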;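 also: 0% = compound-free wells with enzyme and 100% = wells lacking proteasome; stock transfer was 100 nL into about 20 µL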
Target sequence (Q9Y5K5 whole entry, looked up): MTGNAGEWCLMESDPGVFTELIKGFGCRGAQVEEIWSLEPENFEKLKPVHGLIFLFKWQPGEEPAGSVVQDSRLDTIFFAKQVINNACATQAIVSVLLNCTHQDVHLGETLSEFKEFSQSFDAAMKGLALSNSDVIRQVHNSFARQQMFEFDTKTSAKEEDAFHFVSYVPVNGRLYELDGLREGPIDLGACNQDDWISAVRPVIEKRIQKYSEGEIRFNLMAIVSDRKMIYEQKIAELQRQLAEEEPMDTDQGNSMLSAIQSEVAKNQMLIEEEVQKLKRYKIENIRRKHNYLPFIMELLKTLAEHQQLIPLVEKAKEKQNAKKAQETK
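assay system = human UCH37 enzyme supplied as purified proteasome complex | amount = proteasome at 0.15 nM in the dispensed enzyme solution | schedule = 30 min compound-proteasome preincubation then 25 min substrate reaction, room temperature | measured by = fluorescence, ex 355 nm, em 460 nm | benchmarks = no-proteasome wells (full inhibition) and compound-free wells (no inhibition)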
AF4-AF9 inh = blocks AF4 peptide binding to human AF9. P42568. AlphaScreen, biotin-AF4 peptide binding to FLAG-AF9. inhibition, % at 10 µM. 350,000 compounds, 0.47% hits. AID 651704;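 active = every replicate reaching a set inhibition limit, whatever the replicate mean, cut at about 25% in these data; inconclusive = mean inhibition reaches that limit but some replicates miss it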;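 also: 0% = plate neutral control median and 100% = total signal loss; the record names both 10 and 1 µM as test concentration; the first replicate is given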
Target sequence (P42568 whole entry, looked up): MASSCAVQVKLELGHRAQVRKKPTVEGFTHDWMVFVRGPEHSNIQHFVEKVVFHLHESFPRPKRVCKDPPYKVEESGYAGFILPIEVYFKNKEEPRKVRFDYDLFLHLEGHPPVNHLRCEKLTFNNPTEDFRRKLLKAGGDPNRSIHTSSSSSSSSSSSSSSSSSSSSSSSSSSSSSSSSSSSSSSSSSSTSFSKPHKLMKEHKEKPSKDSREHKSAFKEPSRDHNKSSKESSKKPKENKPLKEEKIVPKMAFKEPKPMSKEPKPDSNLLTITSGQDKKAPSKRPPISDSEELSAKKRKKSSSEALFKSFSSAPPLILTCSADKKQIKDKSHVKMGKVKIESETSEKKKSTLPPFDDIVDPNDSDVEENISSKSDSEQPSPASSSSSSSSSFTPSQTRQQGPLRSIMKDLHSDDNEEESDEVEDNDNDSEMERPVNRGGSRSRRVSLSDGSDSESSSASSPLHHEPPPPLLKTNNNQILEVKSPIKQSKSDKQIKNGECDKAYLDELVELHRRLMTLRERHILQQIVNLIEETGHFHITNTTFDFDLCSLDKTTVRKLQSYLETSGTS
Ecoli rRNA inh OD600 = further read-out of Ecoli rRNA inh, marked with its call; OD600 change, %; measured here: OD600 growth;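 optical density of the mix in the first replicate; 0 = DMSO median and -100 = no signal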
Ecoli rRNA inh RFP = also measured in Ecoli rRNA inh; calls as there; RFP signal change, %; measured here: RFP humanized mutant strains;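 first replicate; 0 = DMSO median and -100 = no signal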
* marks the source's active call; other numbers are inactive results; i = inactive; ? = inconclusive; . = not tested or not shown; & = joins results of further samples. These rows are one share of the data; the hit share may differ from the screen's.

SMILES	A1 inh	Beta cell apopt	Ecoli rRNA inh	Ecoli rRNA inh OD600	Ecoli rRNA inh RFP	FGF22 binding	T cruzi inh	E coli growth	UCH37 inh	AF4-AF9 inh
Cc1cccc(CS(=O)(=O)c2ncc(Cl)c(C(=O)Nc3c(C)cccc3C)n2)c1	.	.	-3	6	0.9	i	-37	.	.	-10
CC(Oc1ccc(Br)cc1)C(=O)NC1CCN(Cc2ccccc2)CC1 (centres undefined)	-0.8	-1	5	10	4.8	.	58*	0.7	0.2	1.1
COc1ccc(NC(=O)CN(C)CC(=O)NCCc2ccc(F)cc2)cc1	.	.	8	3	1.4	i	.	0.65	2.4	0.6
CC(Nc1cc(N2CCNCC2)ccc1[N+](=O)[O-])c1ccccc1 (centres undefined)	-0.1	-1	.	.	.	.	7	0.63	9.2	.
COc1ccc(C2=NOC(Cn3nc(-c4ccccc4)cc3C(=O)NCc3ccccc3OC)C2)cc1 (centres undefined)	0.4	12	22	13	1.4	i	.	0.7	1.2	0.1
COc1cc(/C=N/NC(=O)c2ccncc2)ccc1O	0.2&0.6	-2&-7	9	5	1.7	i	8&1	.	.	-3.7&-4.2
CCOc1ccc(CN(C)C(=O)[C@H](C)NC(=O)c2ccco2)cc1OC	0.8	7	0	-8	-1.5	i	-5	0.72	7.4	1.1
Cc1cc(C)c(C(=O)CSc2nc3ccccc3c(=O)[nH]2)cc1C	0.7	9	1	1	0.9	i	-5	0.71	3.7	-1.1
COc1ccc(NS(=O)(=O)c2cccc(C(=O)NCC(c3ccco3)N3CCCC3)c2)cc1 (centres undefined)	-0.6	1	1	2	0.4	i	50	0.69	3.6	16
COC(=O)c1nc(NC(=O)c2ccc(F)cc2)n[nH]1	.	.	7	-1	-8.2	i	1	0.75	3.8	1.9
O=C(NCC(=O)N(c1cccnc1)C(C(=O)NC1CCCCC1)c1cccnc1)c1ccco1 (centres undefined)	0.2	-15	.	.	.	.	-5	0.72	1.7	.
O=C(OCc1ccccc1)N1CCC2CC1c1c(Cl)cccc12 (centres undefined)	.	.	-40	-72	-14	i	.	0.71	5.6	0.6
CCCC(=O)Nc1ccc(Cl)c(NC(=O)c2ccc(Br)o2)c1	-0.5	-4	.	.	.	.	22	0.74	3.9	.
COc1cc(C(=O)NCC2CCCO2)ccc1OCc1ccccc1 (centres undefined)	1.0	-6	4	7	-0.4	i	-1	0.68	0.3	-0.4
COc1cccc(N2C(=O)CC(N3CCC(c4nc5ccccc5[nH]4)CC3)C2=O)c1 (centres undefined)	0.2	1	.	.	.	.	-11	0.68	3.5	.
Cc1nnc(SC(C)C(=O)Nc2ccc3c(c2)OCCO3)s1 (centres undefined)	0.5	2	.	.	.	.	9	0.66	-1.6	.
COc1cccc(-c2cc(C(=O)N3CCN(c4ncccn4)CC3)c3ccccc3n2)c1	0.4	1	.	.	.	.	14	0.74	1.0	.
O=C(NCc1ccccc1)c1cccc(S(=O)(=O)N2CCCCC2)c1	-0.1	-4	-7	2	-1.7	i	1	0.7	3.9	2.9
O=C(NCCCl)NNC(=O)c1cc2ccccc2cc1O	-2.8	-3	37	1	-0.2	i	-13	0.62	5.4	5.1
CCOc1ccc(C(=O)c2nc3c(n2O)CCCCC3)cc1	0.1	-4	.	.	.	.	0	0.68	9.1	.
COC(C[C@H]1O[C@@H]1[C@H](O)[C@H](C)OCc1ccccc1)OC	1.1	-5	8	12	-0.9	i	-16	.	1.1	-0.3
C/C(=C\C(=O)c1ccc(Cl)cc1Cl)N(C)C	0.5	-1	-8	2	0.2	i	-5	0.61	2.9	1.0
C[C@@H](NC(=O)Cn1ccc(N)nc1=O)c1cccc2ccccc12	0.0	-2	-3	-2	3.3	i	.	0.72	2.1	-3.0
COc1ccc(NC(=O)N2CCCc3cccc(C)c32)cc1	0.7	-3	-4	-2	-2.6	i	11	0.66	4.2	1.1
Cc1cccc(-c2nnc3sc(-c4ccccc4)nn23)c1	0.6	2	.	.	.	.	5	0.66	-1.1	.
O=C1CCC(=O)N1CC1CC2CCC1C2 (centres undefined)	0.6	6	19	20	3.9	i	-11	0.64	-2.4	1.2
Cc1ccc(NC(=O)C2(c3ccccc3)CCOCC2)c([N+](=O)[O-])c1	-0.2	.	-7	0	0.8	i	-5	0.67	2.2	10
COC(=O)Nc1ccc(S(=O)(=O)N2CCC(C(=O)NC3CCCCC3)CC2)cc1	0.7	-2	-1	2	4.0	i	16	0.68	-0.9	-0.6
Cc1cc(NC(=O)CCC(=O)N(c2cccc(F)c2)C(C(=O)NC2CCCC2)c2ccncc2)no1 (centres undefined)	-0.2	-4	.	.	.	.	-5	0.74	1.7	.
CC1CCCCC12NC(=O)N(CC(=O)Nc1ccc(Cl)c(S(=O)(=O)N3CCOCC3)c1)C2=O (centres undefined)	.	.	-3	-3	0.4	i	.	0.66	0.5	2.1
CCOc1ccc2nc(SCC(=O)Nc3ccc(S(=O)(=O)N4CCCC4)cc3)c(C)cc2c1	1.3	5	8	10	-5.4	i	11	0.73	-1.2	-17
CCCCN(C)CCNC(=O)c1c[nH]c2ccc(S(=O)(=O)N(CC)CC)cc2c1=O	0.0	-5	.	.	.	.	10	0.64	-24	.
COc1cc(OCc2ccccc2)c(OC)c(OCc2ccccc2)c1	.	.	3	-4	-6.9	i	.	0.67	4.8	0.9
CCOc1ccc(CC(=O)N/N=C(\C)c2cccnc2)cc1	0.4	2	2	2	-1.7	i	9	.	.	1.0
CC(=O)Nc1ccccc1OCCOc1ccc(Br)cc1	0.6	5	-25	-23	5.1	i	-1	0.7	6.2	3.0
COc1ccccc1/C=C\C(=O)NCC(=O)N/N=C(\C)Cc1ccccc1	0.2	0	5	-8	0.8	i	20	.	.	-6.7
CCOc1cccc(/C=N/NC(=O)CC2C(=O)NN=C2C)c1O (centres undefined)	0.6	5	-2	-2	-4.5	i	-9	.	.	-3.4
CCCC1(c2ccccc2)NC(=O)N(CCN2C(=O)c3ccccc3C2=O)C1=O (centres undefined)	-0.4	-5	.	.	.	.	-21	0.74	0.1	.
[O-]/C(=C(\C(=S)Nc1cccc2ccccc12)[n+]1cccc(CO)c1)c1ccc(Cl)s1	.	.	-10	-37	13	i	.	0.71	6.6	13
CN1CCN(c2ccc([N+](=O)[O-])c(Sc3nc4ccccc4[nH]3)c2)CC1	0.1	-2	7	-6	-17	i	39	0.66	8.3	18
CCOc1ccc(NS(=O)(=O)c2ccc(NC(=O)c3ccccn3)cc2)cc1	0.8	3	.	.	.	i	.	0.63	1.3	2.4
Cc1cc(=O)[nH]c2ccc(S(=O)(=O)N3CCOCC3)cc12	-0.6	5	14	6	1.3	i	-8	0.7	0.6	-2.2
COCCn1cnc2c1c(=O)n(CC(=O)OCC#N)c(=O)n2Cc1ccccc1	-0.3	-1	16	15	-8.3	i	5	0.68	-0.7	-4.6
O=C(/C=C/c1ccco1)NCCCN1CCN(CCCNC(=O)/C=C/c2ccco2)CC1	0.7	.	.	.	.	.	-15	0.72	5.3	.
COc1ccc(/C(C)=N/NC(=O)CCC(=O)Nc2ccc(Cl)cc2Cl)c(OC)c1	1.5	0	-6	-4	3.4	i	-3	.	.	2.1
C=CCSc1nnc(NC(=O)CSc2nc3ccccc3[nH]2)s1	-0.1	-8	.	.	.	.	-2	0.63	4.5	.
O=C(c1ccc(Cl)c(S(=O)(=O)N2CCOCC2)c1)N1CCN(c2ccccc2)CC1	1.2	2	8	5	-1.2	i	4	0.73	0.1	1.8
COc1ccc([C@@H]2[C@@H](C(=O)C(C)(C)C)N3N=Cc4ccccc4[C@@H]3C23C(=O)OC(C)(C)OC3=O)cc1OC	0.9	-2	4	0	-5.3	i	-13	0.69	-17	3.6

2 of the compounds above, with bars between the fields.
SMILES | A1 inh | Beta cell apopt | Ecoli rRNA inh | Ecoli rRNA inh OD600 | Ecoli rRNA inh RFP | FGF22 binding | T cruzi inh | E coli growth | UCH37 inh | AF4-AF9 inh
COc1ccc(NC(=O)CN(C)CC(=O)NCCc2ccc(F)cc2)cc1 | . | . | 8 | 3 | 1.4 | i | . | 0.65 | 2.4 | 0.6
CC(Nc1cc(N2CCNCC2)ccc1[N+](=O)[O-])c1ccccc1 (centres undefined) | -0.1 | -1 | . | . | . | . | 7 | 0.63 | 9.2 | .

The list continues.
SMILES	A1 inh	Beta cell apopt	Ecoli rRNA inh	Ecoli rRNA inh OD600	Ecoli rRNA inh RFP	FGF22 binding	T cruzi inh	E coli growth	UCH37 inh	AF4-AF9 inh
COCCCn1c(SCc2nnc(-c3ccc(OC)c(OC)c3)o2)nnc1-c1ccncc1	-0.1	2	.	.	.	.	2	0.73	3.6	.
CCCC(C)NC(=O)CN(Cc1ccco1)S(=O)(=O)c1ccccc1 (centres undefined)	-0.1	1	2	5	1.0	i	.	0.71	1.0	-2.3
NS(=O)(=O)c1ccc(CCNC(=O)CNC(=O)C2CCCCC2)cc1	1.1	-5	.	.	.	.	.	0.69	0.7	.
COC(=O)c1ccc(C(=O)N2CCCC(N3CCN(c4ccccc4)CC3)C2)nc1 (centres undefined)	-0.6	-1	-2	4	-3.8	i	-13	0.66	3.7	-2.0
CC(C)n1c(NCc2nc3ccccc3n2C)nc2ccccc21	-0.1	6	.	.	.	.	2	0.66	0.6	.
Cn1c(SCC(=O)N2CCCc3ccccc32)nnc1-c1ccco1	0.3	1	.	.	.	.	2	0.74	1.2	.
CN1CCCCCC1C(=O)N1CCC(N2CCC(C(=O)N3CCOCC3)CC2)CC1 (centres undefined)	0.8	-8	5	3	5.0	i	-14	0.71	-1.6	11
COc1ccc(CN2C(=O)COc3ccccc32)cc1	?	-7	5	9	-4.1	i	-1	0.71	1.4	-0.5
CCOc1cc(C(c2c(C)[nH][nH]c2=O)c2c(C)[nH][nH]c2=O)cc(Cl)c1O	1.4	-3	12	4	-2.6	i	-4	0.68	7.3	-1.3
Brc1ccc(C2=CC(c3cccs3)n3ncnc3N2)cc1 (centres undefined)	1.6	30	.	.	.	.	8	0.73	-0.9	.
S=C1NCN(C2CCCCC2)CN1c1ccccc1	-0.1	-12	3	6	-2.7	i	1	0.65	1.2	-0.5
COc1ccccc1OCC#CCn1ccnc1	-0.6	-5	12	9	-3.0	i	-1	0.72	4.6	-0.3

Among those listed so far, these contain fluorine:
SMILES	A1 inh	Beta cell apopt	Ecoli rRNA inh	Ecoli rRNA inh OD600	Ecoli rRNA inh RFP	FGF22 binding	T cruzi inh	E coli growth	UCH37 inh	AF4-AF9 inh
COc1ccc(NC(=O)CN(C)CC(=O)NCCc2ccc(F)cc2)cc1	.	.	8	3	1.4	i	.	0.65	2.4	0.6
COC(=O)c1nc(NC(=O)c2ccc(F)cc2)n[nH]1	.	.	7	-1	-8.2	i	1	0.75	3.8	1.9
Cc1cc(NC(=O)CCC(=O)N(c2cccc(F)c2)C(C(=O)NC2CCCC2)c2ccncc2)no1 (centres undefined)	-0.2	-4	.	.	.	.	-5	0.74	1.7	.
